# Source: PubChem
# TRPML1 inh: inhibitors of human TRPML1 channel | Q9GZU1 | TRPML1-inducible cells, Ca2+ dye fluorescence, FDSS; hits give low values; inhibition of EC80 agonist-evoked calcium signal | activity change, negative = inhibition, % (no concentration beside the values) | hit rate 0.02% among 390,000 | AID 624415; in the data active means activity change below about -50%; inconclusive means about -30% to -50%; inactive means above about -30%;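 further: stimulus is agonist 54-4 at its EC80 concentration; on the % scale 0 is the no-effect control and ±100 the full control effect; compound concentration not given in the record; the text of the record puts the active cut at -80%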
#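 Tet-induced TRPML1-DL cells loaded with Ca8 no-wash calcium dye were read kinetically on FDSS. Compound addition was followed by EC80 agonist 54-4 (4 uM final); inhibition was read over 110 s.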
# CtBP-E1A inh: CtBP/E1A binding inhibition | activity change, % (no concentration beside the values) | hit rate 0.49% among 340,000 | AlphaScreen GST-E1A/His-CtBP binding, 1536-well; hits give low values; control for the full effect not named in the record; in the data active means activity change below about -65%; inconclusive means about -30% to -65%; inactive means above about -30%; further: on the % scale 0 is the no-effect control and ±100 the full control effect; compound concentration not given in the record
#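 Steps: dispense buffer (Tris pH 8.0, NaCl 300 mM, TCEP 1 mM, BSA, Tween 20); add 5X protein mix (GST-E1A, His-CtBP, 125 nM each); pin 23 nL compound; 2 h at 37 °C, dark; add 5X beads (50 ug/mL); 1 h; read.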
# TRPV1 potentiator: enhances activation of the human vanilloid receptor TRPV1; Q8NER1; TRPV1-expressing cells, Fluo-8 calcium influx, capsaicin EC20 potentiation; host cell line not named in the record; control for the full effect not named in the record; potentiation, % at 8.33 µM; hit rate 0.02% among 320,000; AID 540277; active means potentiation above 80%; inconclusive means 30% to 80%; inactive means below 30%; further: 0% is about no effect
# Target sequence (Q8NER1 whole entry, looked up): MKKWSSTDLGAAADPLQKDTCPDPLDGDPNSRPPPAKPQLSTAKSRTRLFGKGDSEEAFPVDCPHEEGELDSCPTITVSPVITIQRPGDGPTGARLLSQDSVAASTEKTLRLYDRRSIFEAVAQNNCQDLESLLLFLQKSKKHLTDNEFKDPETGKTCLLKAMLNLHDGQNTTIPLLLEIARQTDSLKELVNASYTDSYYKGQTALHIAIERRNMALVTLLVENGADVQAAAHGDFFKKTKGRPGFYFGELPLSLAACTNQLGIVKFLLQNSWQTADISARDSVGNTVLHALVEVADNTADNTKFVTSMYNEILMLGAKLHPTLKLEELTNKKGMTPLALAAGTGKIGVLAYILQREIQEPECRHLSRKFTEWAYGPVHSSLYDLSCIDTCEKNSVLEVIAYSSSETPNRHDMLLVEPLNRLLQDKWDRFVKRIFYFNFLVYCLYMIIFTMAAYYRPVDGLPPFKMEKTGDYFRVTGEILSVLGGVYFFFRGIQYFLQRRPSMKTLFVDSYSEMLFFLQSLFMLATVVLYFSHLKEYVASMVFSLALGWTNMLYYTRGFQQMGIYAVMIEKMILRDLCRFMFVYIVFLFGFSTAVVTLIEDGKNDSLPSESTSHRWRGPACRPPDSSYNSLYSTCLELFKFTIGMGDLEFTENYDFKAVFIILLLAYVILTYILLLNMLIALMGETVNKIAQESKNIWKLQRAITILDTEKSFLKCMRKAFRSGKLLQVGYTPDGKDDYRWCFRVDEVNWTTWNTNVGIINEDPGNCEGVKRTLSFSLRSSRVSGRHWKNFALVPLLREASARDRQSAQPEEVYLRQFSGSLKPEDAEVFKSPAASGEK
#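 Cells expressing TRPV1 were dye-loaded with Fluo-8 and read kinetically: 10 s baseline, 3 min after compound (agonist portion), then 2 min after EC20 capsaicin (allosteric enhancer portion). Calcium-bound dye fluorescence at 480/520 nm.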
# Six1-Eya2 blk: inhibitors of human Six1/Eya2 interaction; Q15475+O00167; AlphaScreen GST-Six1/His-Eya2 binding, biochemical; hits give low values; control for the full effect not named in the record; activity change, % (test concentration not listed); hit rate 0.56% among 360,000; AID 651725; in the data active = activity change below about -65%; inconclusive = about -30% to -65%; inactive = above about -30%; further: on the % scale 0 is the no-effect control and ±100 the full control effect; compound concentration not given in the record
#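 AlphaScreen luminescence read after one hour at 37 °C in darkness. Pin-transferred compounds met GST-Six1 and His-Eya2 protein (5X stock 250 nM/500 nM) plus glutathione donor and Ni-chelate acceptor beads (5X, 50 ug/mL).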
# D2 potentiator: human D2 receptor positive allosteric modulation; potentiation, % (test concentration not listed); DiscoveRx D2 beta-arrestin cells, luminescence, 90 min; 100% = 57 uM dopamine signal; hit rate 0.23% among 360,000; P14416; AID 624464; active = potentiation of 50% or more; inconclusive = 30% to 50%; inactive = 30% or less;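 further: compound concentration not given in the record; tested on top of an EC20 dose of dopamine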
#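 PathHunter D2 cells, attached overnight at 37 deg C, received compound in DMSO plus dopamine at EC20 (50 nM final) for 90 min at 37 deg C. Beta-arrestin recruitment was read as luminescence after 1 h with detection reagent at ambient temperature.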
# TRPML1 agonist: human mucolipin-1 channel agonism; activation, % (test concentration not listed); Q9GZU1; TRPML1-expressing cells, Ca2+ dye fluorescence, FDSS; host cell line not named in the record; reference of the full effect not given here; hit rate 0.12% among 410,000; in the data active = activation above about 50%; inconclusive = about 30% to 50%; inactive = below about 30%; further: 0% is about no effect; the text of the record puts the active cut at 80%
#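 Tetracycline-induced TRPML1-DL cells are seeded and incubated overnight before loading with a no-wash Ca2+ dye and quencher. Agonist activity is taken from the 110 s fluorescence read following compound pin-transfer on an FDSS, before EC80 54-4 challenge.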
# * = called active by the depositor; ? = inconclusive; . = no result given; & = joins results of further samples. Outcome played no part in choosing rows. About 0.95% of those tested had a hit in this group.
SMILES	TRPML1 agonist	TRPML1 inh	Six1-Eya2 blk	TRPV1 potentiator	CtBP-E1A inh	D2 potentiator
Cc1ccc(N(C)C(=O)c2cc(S(=O)(=O)N3CCCCC3)c[nH]2)cc1	-1.2	-1	-7	-37	1	-3
Cc1ccc(OCCCC(=O)N2CCN(S(=O)(=O)c3cccc(F)c3)CC2)cc1	1.9	8	-3	-9	-1	-29
CCc1ccc(OCC(=O)Nc2cccc3c2CCCC3)cc1	1.1	3	11	-10	.	-11
O=C(O)/C=C/C(=O)N1CCN(C(c2ccccc2)c2ccccc2)CC1	.	.	-2	1	-2	-19
CC1(C(=O)Nc2ccc3nc[nH]c3c2)CCN1C(=O)c1ccccc1CCc1ccccc1 (centres undefined)	-0.6	-9	-22	.	-4	-13
COc1cccc(C2C(C(N)=O)=C(C)Nc3nc(CCCO)nn32)c1 (centres undefined)	1.2&0.4	0&-13	-6	0	-4	-3
CC(=O)N1c2ccc(S(=O)(=O)N3CCCC(C(=O)NCc4ccccc4)C3)cc2CC1C (centres undefined)	-0.3	2	-3	-16	-2	-4
CSc1ccc(C#N)cc1NC(=O)c1ccccc1	0.9	-1	4	-5	8	-6
COc1ccc(-c2cc(C3CCN(c4cc(Cl)nc(N)n4)CC3)[nH]n2)cc1	0.8	-3	-7	1	-9	0
COc1ccccc1NC(=O)CN(C)S(=O)(=O)c1cc(C)ccc1OC	3.0	-16	3	-8	1	-10
COc1ccc(C2=NOC(C(=O)NCc3ccccc3)C2)cc1 (centres undefined)	3.1	4	-1	8	-4	3
CCN(CC)S(=O)(=O)c1ccc(Nc2cc(C)nc3ncnn23)cc1	-0.1	2	-7	28	-9	-4
O=S(=O)(NC1c2cccc3cccc(c23)C1N1CCNCC1)c1ccccc1 (centres undefined)	-0.7	7	-1	0	-1	-6
CCOC(=O)c1c[nH]c2c(Cl)ccc(Cl)c2c1=O	1.4	7	-26	-4	-27	-19
CC1CCC(CN2C(Nc3ccccc3)=NC[C@@H]2C)CC1 (some centres undefined)	0.0	-14	-1	?	5	-10
Nc1ccn(C(C=O)CC(C=O)CO)c(=O)n1 (centres undefined)	-0.1	.	11	.	-8	-3
COCc1c(CCl)cnc(C)c1O	2.7	-15	9	11	.	15
O=[N+]([O-])c1cccc(OCCN2CCC(Cc3ccccc3)CC2)c1	-0.1	4	?	-20	-28	-26
Cc1[nH]n(-c2ccc(Cl)cc2)c(=O)c1N=Nc1cccnc1	-0.1	6	-2	5	0	-8
CC(CCc1ccccc1)NC(=O)COC(=O)C12CC3CC(CC(Br)(C3)C1)C2 (centres undefined)	2.1	-8	37	-1	4	-9
Cc1cccc(NC(=O)NCC(c2cccnc2)N2CCOCC2)c1 (centres undefined)	2.0	33	3	2	7	-8
COc1ccccc1N(CC(=O)NCC(C)C)S(=O)(=O)c1cccs1	-0.4	6	6	28	-12	-7
Cc1cc(C)n(-c2ccc(NC(=O)C3CCCCN3C(=O)c3ccoc3)cc2)n1 (centres undefined)	-0.2	-14	10	16	-5	-16
CCOC(=O)[C@]12CCCC=C1N(Cc1ccc3c(c1)OCO3)C(=O)[C@H](CC(=O)N1CCOCC1)C2	-0.1	.	9	.	-19	.
O=[N+]([O-])c1cc(/C=N/Nc2nc3ccccc3[nH]2)c(O)cc1O	-0.2	21	-97*	-6	-99*	-24
CC(C)CC(=O)Nc1nc(=S)ss1	-0.3	-14	8	-1	7	-3
O=C(c1ccc(NS(=O)(=O)c2ccc3[nH]c(=O)[nH]c3c2)cc1)N1CCN(c2ccccc2O)CC1	1.2	9	-8	-9	-4	5
C=CCn1c(SCCN)nnc1-c1cccc(S(=O)(=O)N2CCOCC2)c1	-0.3	2	-7	.	-2	-11
CCC(C)NC(=O)c1cn(CC)c2cc(N3CCN(C(=O)c4ccco4)CC3)c(F)cc2c1=O (centres undefined)	1.1	1	-6	6	-24	0
Cc1ccc(C2NC(=S)NC3=C2C(=O)CCC3)cc1 (centres undefined)	1.0	12	2	16	-2	-2
O=[N+]([O-])c1ccc(CS(=O)(=O)N2CCN(c3ccccc3)CC2)cc1	1.4	-4	0	1	-3	-2
O=C(NCCc1cccs1)C1CC(c2ccccc2[N+](=O)[O-])=NO1 (centres undefined)	0.1	29	5	10	4	-2
N=c1sccn1CC(=O)Nc1ccccc1-c1ccccc1	-0.1	-5	1	14	-1	7
Cn1c(CC(=O)Nc2ccccc2F)nnc1SCC(=O)NC1CCCC1	-0.3	3	7	8	-7	-10
Oc1ccc(C[C@H]2CNC(=S)N2CC2CCCN2C[C@H](Cc2ccc(O)cc2)N2C[C@H](Cc3ccc(O)cc3)N(CC3CCCCC3)C2=S)cc1 (some centres undefined)	0.1	1	-5	.	?	-12
CCOCCCNC(=O)c1cn(C)c(=O)c2cc(OC)c(OC)cc12	-1.0	-6	0	-2	-9	2
FC(F)(F)c1cccc(Nc2nc(N3CCCC3)nc(N3CCCC3)n2)c1	-0.1	-6	11	-2	-9	-7
CCOC(=O)CNC(=O)CSc1nc(N)cc(N)n1	0.0	-18	18	-6	-3	5
O=C(c1ccc(C(F)(F)F)cc1)N(CCCn1ccnc1)C(c1ccccn1)c1nc2ccccc2[nH]1 (centres undefined)	-0.6	.	-13	.	-18	-3
O=C(O)COc1ccccc1C1C2C(=O)N(c3ccc(F)cc3)C(=O)C2ON1c1ccccc1 (centres undefined)	0.1	5	-6	-5	5	-5
O=C(Cn1cnc2c(oc3ccccc32)c1=O)c1ccccc1	-0.2	-3	-1	-1	1	-12
CCOc1ccc(Br)cc1S(=O)(=O)N1CC(C)OC(C)C1 (centres undefined)	0.7	-10	9	16	10	1
Cc1c(Cl)cccc1NC(=S)NCCc1ccc(C(F)(F)F)cc1	1.3	-18	-2	-6	2	-12
COc1ccc(C)cc1S(=O)(=O)NC1CC1	0.7	11	-4	6	-2	-3
Cc1ccc(S(=O)(=O)NC(=O)c2ccccc2F)cc1	-0.8	-11	4	5	-1	-9
CCN(C(=O)c1cnc(N2CCN(c3ncccn3)CC2)c2ccccc12)c1cccc(Cl)c1	0.5	1	0	5	-2	-14
CC(=O)Nc1cccc(Oc2ccc3c(c2)C(=O)N(CCC(=O)O)C3=O)c1	0.0	6	-1	-1	2	-13
O=C(Nc1ccccc1C(=O)Nc1ccccc1)c1ccccc1Br	-0.1	-2	2	.	-1	-4
CCNC(=S)N(CCO)Cc1cc2cc3c(cc2[nH]c1=O)OCO3	.	.	20	-11	.	17
Cc1ccc(S(=O)(=O)N2CCOCC2)cc1NC(=O)COC(=O)CNC(=O)c1ccccc1	6.5	14	0	-4	2	-10

# Two compounds from above with just TRPV1 potentiator and CtBP-E1A inh.
compound,TRPV1 potentiator,CtBP-E1A inh
Cc1ccc(S(=O)(=O)NC(=O)c2ccccc2F)cc1,5,-1
Cc1ccc(C2NC(=S)NC3=C2C(=O)CCC3)cc1 (centres undefined),16,-2

# Remaining list, next part
SMILES	TRPML1 agonist	TRPML1 inh	Six1-Eya2 blk	TRPV1 potentiator	CtBP-E1A inh	D2 potentiator
Cc1cccc(Cl)c1NC(=O)N1CCCN(c2ncccc2[N+](=O)[O-])CC1	-0.6	6	4	4	7	-9
C[C@@H]1CN([C@@H](C)CO)S(=O)(=O)c2ccc(/C=C/c3ccccc3)cc2O[C@@H]1CN(C)Cc1ccc(C(=O)O)cc1	1.4	10	5	.	2	11
S=C1NCN(Cc2ccco2)CN1Cc1ccco1	3.7	-1	-2	0	-1	-4
C=CCn1c(SCC(=O)NCc2ccc3c(c2)OCO3)nc2scc(-c3ccccc3)c2c1=O	-0.4	-4	-4	2	0	21
COc1cc(SC)ccc1C(=O)Nc1nccs1	-0.2	-24	-9	-1	-28	-3
CC(=O)c1sc(NC(=O)CCN2C(=O)C3CC=CCC3C2=O)nc1-c1ccccc1 (centres undefined)	-0.6	18	-2	-7	0	3
COc1cc(NC(=O)CS(=O)(=O)c2ccccc2)cc(OC)c1OC	-1.2	17	-8	-11	1	-13
CCc1ccccc1N(CC(=O)NC1CCCCC1)C(=O)CCCC(=O)Nc1ccccn1	0.2	10	-2	4	-3	1
O=C1NC(=Nc2ccccc2)S/C1=C/c1cccnc1	-1.8	2	1	-1	1	-6
CCCS(=O)(=O)N1CCN(C2CCC(C)CC2)CC1 (centres undefined)	0.0	-8	0	-3	1	7
Cc1ccc(CCNC(=O)C2CC(=O)N(CCc3ccccc3)C2)cc1 (centres undefined)	-0.1&-0.2	-15&8	6	-2	3	-8
CC[n+]1ccc(C(=O)NCc2ccccc2)cc1	0.6	-3	3	?	-7	2
O=C(CCC1CCCN(Cc2ccc(O)c(Cl)c2)C1)NCc1ccccc1F (centres undefined)	-0.4	-2	-1	-13	4	-12
O=C(Cc1ccc2c(c1)OCO2)NN=Cc1ccc([N+](=O)[O-])o1	0.3	-5	4	.	-24	-21
CN(CC(=O)Nc1ccc(N2CCOCC2)cc1)Cc1c(O)ccc2ccccc12	-0.5	11	0	-7	4	15
CCCCCC(O)(CCN1CCCCC1)c1ccccc1 (centres undefined)	1.0	6	5	7	.	-16
Nc1cc([N+](=O)[O-])ccc1N1C(=O)CCCC1=O	0.0	-3	-1	-11	.	-19
Cc1ccc(-n2c(SCC(=O)N3c4ccccc4Sc4ccccc43)nnc2-c2ccncc2)cc1	3.3	-7	5	9	16	-6
COc1ccccc1-c1nc(=S)c(C(C)=O)c(C)[nH]1	-0.2	0	5	9	0	-5
O=S(=O)(Nc1ccc(Cc2ccncc2)cc1)c1ccc(Cl)s1	1.0	13	2	13	11	11
CCOC(=O)c1c(C)sc2c1N(C(=O)CN1CCOCC1)c1cc(Cl)ccc1S2	1.0	55	0	-16	-10	-2
CCCCCCn1c(=O)n2n(c1=O)[C@@H]1CN(S(=O)(=O)c3ccc(C)cc3)C[C@]1(O)[C@@H](OC(=O)Nc1c(C)noc1C)C2	0.1	5	0	.	-11	0
Cc1ccc(OCC(O)Cn2c(=N)n(CCN3CCOCC3)c3ccccc32)cc1 (centres undefined)	-1.1	-6	-2	5	1	-5
CC(Oc1ccccc1F)C(=O)Nc1ccc2ccccc2c1 (centres undefined)	1.8	21	16	-4	13	0

# 3 records drawn at random from the list so far, as already listed:
SMILES	TRPML1 agonist	TRPML1 inh	Six1-Eya2 blk	TRPV1 potentiator	CtBP-E1A inh	D2 potentiator
CCc1ccccc1N(CC(=O)NC1CCCCC1)C(=O)CCCC(=O)Nc1ccccn1	0.2	10	-2	4	-3	1
Cc1ccc(OCC(O)Cn2c(=N)n(CCN3CCOCC3)c3ccccc32)cc1 (centres undefined)	-1.1	-6	-2	5	1	-5
C[C@@H]1CN([C@@H](C)CO)S(=O)(=O)c2ccc(/C=C/c3ccccc3)cc2O[C@@H]1CN(C)Cc1ccc(C(=O)O)cc1	1.4	10	5	.	2	11
